Compound activity as filed in PubChem BioAssay.
PINK1 expr mod: PINK1 expression modulation. PINK1 immunofluorescence, high-content cytometry, 24 h. Potency, µM (highest dose often 76.6 µM), inactives show top-dose activation (PINK1 increase), usual class: activators. 410,000 compounds, 0.2% hits. AID 624263; active = well fitted activation curve with a large enough effect; inconclusive = small, poorly fitted or top-dose-only effect; inactive = flat fitted curve, though single readings scatter; cell line not stated here;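 further: potency means the concentration at half of the fitted maximal effect; % of control where 0% means no effect; nearly all actives have a fitted effect of over 65% in size; a mitochondrial uncoupler was the plate control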
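Measures PINK1 amount and localization on or inside mitochondria by immunofluorescence. Stable cells get compounds at 5 concentrations for 24 hours before fixation and staining; CCCP controls included.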
ClpP mod: qHTS Assay for Activators of ClpP | ATP-dependent Clp protease proteolytic subunit (Bacillus subtilis (strain 168)), P80244 | purified B. subtilis ClpP, FRET peptide cleavage, 20 min | Potency, µM (doses to about 57.5 µM), without a hit: top-dose activity change, negative = active | 340,000 compounds, 1.9% hits; active = well fitted falling curve with a large enough effect; inconclusive = small, poorly fitted or top-dose-only effect; inactive = no such curve, though single readings can be large or run the other way; further: potency means the concentration at half of the fitted maximal effect; the source files actives as falling curves though it sought activators and does not explain the sign; nearly all actives have a fitted effect of over 65% in size; many hits overshoot -100%
Target sequence (P80244 whole entry, looked up): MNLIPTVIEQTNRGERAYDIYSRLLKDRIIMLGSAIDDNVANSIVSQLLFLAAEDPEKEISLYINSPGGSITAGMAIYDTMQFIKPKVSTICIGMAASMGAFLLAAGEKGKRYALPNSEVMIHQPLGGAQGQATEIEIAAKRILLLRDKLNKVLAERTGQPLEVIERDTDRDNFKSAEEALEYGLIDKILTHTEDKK
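ClpP 10 microg/mL final, pH 8 Tris/KCl buffer with BSA, glycerol, Tween-20; compound pinned in; FRET-FV substrate; RT 20 min; Ex320/Em430; ΔFRET vs ADEP 5.8 microM, DMSO, no enzyme.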
Sfp inh: blocks B. subtilis Sfp PPTase activity | 310,000 compounds, 3.5% hits | Biochemical Sfp PPTase activity, qHTS | Potency, µM, for inactives: max response, negative = inhibition, most hits filed as inhibitors | Q9F4F7; active means well fitted inhibition curve with a large enough effect; inconclusive means small, poorly fitted or top-dose-only effect, or another doubt; inactive means no such curve, though single readings can be large or run the other way;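 further: the enzyme is Sfp with the accession as filed and its product quenches rhodamine fluorescence; potency means the concentration at half of the fitted maximal effect; 0% = enzyme reaction without inhibitor and -100% = no enzyme wells; top concentration of the series not given in the record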
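Buffer: 50 mM Hepes-Na pH 7.6, 10 mM MgCl2, 0.01% Nonidet P-40, 0.01% BSA. Enzyme 15 nM, pre-exposed to compound 15 min; substrates then added and fluorescence change tracked over 30 min.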
gsp ag: agonists of gsp mutant (McCune-Albright syndrome). gsp mutant cells, cAMP HTRF, 30 min; control for the full effect not named in the record. Potency, µM (top dose mostly 76.9 µM), without a hit: top-dose activation (cAMP increase), hits mostly activators. 340,000 compounds, 0.13% hits. AID 624287; active = well fitted activation curve with a large enough effect; inconclusive = small, poorly fitted or top-dose-only effect, or another doubt; inactive = no such curve, though single readings can be large or run the other way; cell line not stated here;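 further: phosphodiesterase inhibitor Ro 20-1724 added with compounds to block cAMP breakdown; potency means the concentration at half of the fitted maximal effect; nearly all actives have a fitted effect of over 60% in size; about a fifth of the inactives were tested at one dose only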
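Cells stably selected in G418 were plated at 2000/well, grown 16-24 hr, then given compounds in DMSO with the PDE inhibitor […] (300 uM solution added) for 30 min at 37C; cAMP was read by HTRF.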
Menin MLL FP FL: menin-MLL binding inhibition, fluorescein peptide | Fluorescence polarization, fluorescein-MLL peptide displacement from menin | 290,000 tested, under 10 active | FP activity change, % at 61.4 µM | AID 1766; inconclusive = falling polarisation curve, or a change in total fluorescence; inactive = total fluorescence flat and polarisation flat or rising; no compound was filed as active; the % refers to the polarisation; negative = inhibition;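 further: % of control where 0% means no effect; inhibitors lower the polarisation; unlabelled MLL peptide was the positive control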
gsp antag: gsp mutant antagonism; Potency, µM (top dose mostly 76.9 µM), inactives show top-dose activity change, negative = inhibition, hits mostly inhibitors; 340,000 compounds, 0.4% hits; gsp-mutant cells, cAMP HTRF, 30 min; control for the full effect not named in the record; active = falling curve of any shape with a large fitted effect; inconclusive = falling curve, mostly with a smaller effect; inactive = flat or rising curve; cell line not stated here;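 further: intracellular cAMP measured with PDE inhibitor Ro 20-1724 present during compound exposure; potency means the concentration at half of the fitted maximal effect; on the % scale 0 is the no-effect control and ±100 the full control effect; nearly all actives have a fitted effect of over 65% in size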
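Measurement of cellular cAMP by homogeneous time-resolved fluorescence following a 30 min compound exposure at 37C. The PDE inhibitor […] was present throughout; the assay buffer was DPBS with 0.05% BSA and 0.005% Tween 20.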
D2 ag: agonists of human D2 dopamine receptor (beta-arrestin); P14416; DiscoveRx PathHunter D2 beta-arrestin, luminescence, 90 min; 100% = 57 uM dopamine signal; activation, % (concentration not given with the values); 360,000 compounds, 0.084% hits; in the data active = activation above about 40%; inconclusive = about 15% to 40%; inactive = below about 15%; further: the text of the record calls up to 30% inactive
Target sequence (P14416 whole entry, looked up): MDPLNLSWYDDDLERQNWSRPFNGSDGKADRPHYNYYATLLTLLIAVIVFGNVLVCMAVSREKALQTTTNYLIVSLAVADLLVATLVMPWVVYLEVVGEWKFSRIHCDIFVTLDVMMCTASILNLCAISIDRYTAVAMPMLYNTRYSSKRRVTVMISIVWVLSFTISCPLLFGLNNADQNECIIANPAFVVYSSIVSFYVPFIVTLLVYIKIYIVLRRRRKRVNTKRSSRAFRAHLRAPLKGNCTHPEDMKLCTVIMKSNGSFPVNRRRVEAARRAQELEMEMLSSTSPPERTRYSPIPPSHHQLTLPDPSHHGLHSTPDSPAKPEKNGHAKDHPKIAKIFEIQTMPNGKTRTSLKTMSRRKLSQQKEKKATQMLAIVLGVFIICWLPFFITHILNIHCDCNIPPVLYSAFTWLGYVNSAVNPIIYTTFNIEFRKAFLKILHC
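Agonist mode: compounds alone added to overnight-plated D2 PathHunter cells for 90 min at 37 C, with 57 uM final dopamine (EC100) defining full response. Beta-arrestin recruitment detected by chemiluminescent reagent, read after 1 h at ambient temperature.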
An asterisk follows results filed as active; u = inconclusive; x = not tested or not shown; & = joins results of further samples; [ ] = remark or other dose.

SMILES	PINK1 expr mod	ClpP mod	Sfp inh	gsp ag	Menin MLL FP FL	gsp antag	D2 ag
CCCNC(=O)C(Cc1cccc(OC)c1)NC(=O)c1ccc(C#N)cc1 (stereo unspecified)	1.1%	3.2%	x	5%	x	5%	-1.5
O=C(Nc1ccc(Cl)cn1)c1cccc(S(=O)(=O)N2CCCCC2)c1	1.2%	x	-2%	15%	0.8	2%	-1.6
O=C(c1cccnc1)c1ncc(C(F)(F)F)cc1Cl	1.2%	1.3%	4%	-13%	1.3	4%	7.2
O=C(N/N=C/c1cccc(F)c1)c1cc(-c2ccco2)nc2ccccc12	6.2%	32µM*	-5%	-1%	3.8	11%	-2.0
C=CCc1cccc2cc(C(=O)Nc3ccc(CC(=O)O)cc3)c(=O)oc12	-0.7%	x	-3%	24%[15.4 µM]	-2.0	-38%	4.6
CC(c1cccs1)N(C)Cc1nc(CCc2ccccc2)no1 (stereo unspecified)	-0.8%	-0.1%	12%	17%	3.8	13%	-2.1
Cc1cc(=O)oc(C)c1C(=O)Nc1cccc(F)c1	-1.4%	0.3%	9%	-140%[inhibitor]	3.0	-10%	-3.8
COCCNc1nc(C(C)(C)C)nc2c1nnn2Cc1ccccc1Cl	18%[38.3 µM]	3.3%	17%	-22%	5.6	-5%	-1.0
O=C1NC(Nc2ccccn2)(C(F)(F)F)C(=O)N1c1ccc(F)cc1 (stereo unspecified)	u	-1.9%	20%	3%	5.9	-1%	4.1
CC(=O)Nc1ccc(NC(=O)CNC(=O)COc2ccccc2)cc1	-2.8%	x	-1%	1%	-0.2	15%	0.0
COC(=O)c1ccc(NC(=O)C2CCCN2S(=O)(=O)c2ccc(C)cc2)cc1 (stereo unspecified)	-3.5%	0.4%	5%	14%	-4.4	-22%	-3.0
O=C(CN1C(=O)NC2(CCc3ccccc32)C1=O)c1ccc(Br)s1 (stereo unspecified)	1.5%	-1.3%	x	u	x	-4%	-3.3
O=C(Nc1ccc2[nH]c(=O)[nH]c2c1)c1ccc(Br)o1	0.8%	1.1%	8%	u	3.3	2%	1.6
Cn1c(N)c(C(=O)COC(=O)CCc2c[nH]c3ccccc23)c(=O)n(C)c1=O	2.3%	11%	9%	25%	-0.5	7%	-1.6
O=C(NCCc1ccccc1)c1ccc2c(c1)S(=O)(=O)c1cc(Cl)ccc1C2=O	6.6%	1.5%	x	x	x	-14%	1.2
CCOC(=O)COn1c(=O)c(-c2ccc(OC)cc2)[n+]([O-])c2ccccc21	2.0%	x	18%	-20%	1.6	-1%	-5.9
O=C1CN(C(=O)COc2ccc(Br)cc2F)c2ccccc2N1	-1.3%	-1.2%	2%	8%	5.7	5%	0.1
CCCN(CCC)C(=O)Nc1cc(Cl)ccc1OC	2.3%	-0.4%	-7%	26%	2.2	-7%	-7.0
Cc1cc(Cl)ccc1NC(=O)/C=N/O	0.1%	-0.5%	12%	-11%	-0.5	11%	-1.4
COc1c(C)cc(C(=O)C2CCCN(C(=O)c3cc(C)nc(C)n3)C2)cc1C (stereo unspecified)	0.5%	x	20%	-6%[15.4 µM]	0.2	5%	-4.4

Further results follow:
SMILES	PINK1 expr mod	ClpP mod	Sfp inh	gsp ag	Menin MLL FP FL	gsp antag	D2 ag
Cc1cc(S(=O)(=O)N2CCN(c3ccc(F)cc3)CC2)c(C)s1	1.8%	-1.8%	1%	u	2.4	-8%	-4.1
CC(=O)NC1=C(C#N)C(c2ccccc2)c2c(ccc3ccccc23)O1 (stereo unspecified)	0.1%	-2.9%	-4%	22%	-0.8	u	0.0
COC(=O)C(NC(=O)CCc1c(C)nc2c(c(C)nn2-c2ccccc2)c1C)C(C)C (stereo unspecified)	-0.2%&1.0%	3.5%&4.6%	11%	12%	u	-19%	11
O=C(Nc1ccc(NC(=O)c2ccccc2O)cc1)Nc1ccc(F)cc1F	1.1%	-9.5%	9%	-3%[15.4 µM]	5.2	15%	-4.1
CN1C(C(=O)NCc2cccs2)=CC(c2ccc(F)cc2)=NS1(=O)=O	-2.0%	-0.6%	9%	7%	2.8	13%	-2.4
CC1(C)NC(=O)N(CC(O)COc2ccccc2C(=O)N2CCCCC2)C1=O (stereo unspecified)	0.2%	1.0%	12%	0%	3.5	6%	1.0
COc1ccc(NC(=O)CN2C(=O)NC3(CCCCC3C)C2=O)cc1OC (stereo unspecified)	-1.5%	-0.8%	x	1%	x	6%	-0.1
CCOC(=O)c1cccc(NC(=O)C2CCN(S(=O)(=O)c3cnc[nH]3)CC2)c1	1.8%	0.6%	0%	-30%	3.5	2%	3.4
CC(=O)Oc1ccc(-c2csc(Nc3cccnc3)n2)cc1	0.8%	-1.2%	3%	0%	7.1	4%	-0.2
Cc1cc(C)c(C(=O)COC(=O)c2cc([N+](=O)[O-])ccc2N2CCOCC2)cc1C	2.6%	1.7%	x	-3%	x	10%	-0.8
Nc1ncnc2c1ncn2[C@@H]1O[C@H](C(=O)Nc2ccc(C(=O)N3CCCCC3)cc2)[C@@H](O)[C@H]1O	0.6%	1.7%	x	x	x	x	-4.3
COc1ccc(-c2[nH]ncc2C=O)cc1	-1.2%	1.0%	15%	2%[15.4 µM]	4.2	-10%	1.5
O=C(O)c1cccc(N2C(=O)C3C4C=CC(C4=C(c4ccccc4)c4ccccc4)C3C2=O)c1 (stereo unspecified)	-1.0%	x	35µM*	6%[15.4 µM]	1.0	-18%	-0.2
CCOC(=O)N1CCC(NC(=O)CC(NS(=O)(=O)c2ccc(C)cc2)c2ccco2)CC1 (stereo unspecified)	2.2%	-0.8%	16%	25%	1.5	0%	-1.1
CC(C)(C)c1cc(NC(=O)c2cccnc2)no1	-3.5%[38.3 µM]	-2.4%	-1%	-3%	6.5	5%	0.0
CC(=O)Nc1cccc(N2CCCC2=O)c1	-2.2%[38.3 µM]	-0.9%	-7%	16%	-3.4	11%	-2.8
Cc1ccc2c(c1)N(C(=O)CCC(=O)NCCCN1CCOCC1)CCO2	0.9%	-1.0%	-1%	2%	-5.7	9%	-4.1
O=C(CCS(=O)(=O)c1ccccc1)Nc1ccc(N2CCN(Cc3ccccc3)CC2)cc1	-0.5%	-1.6%	x	-1%	x	-3%	0.7
CCOc1ccc(S(=O)(=O)N2CCN(c3ccccc3)CC2)c2cccnc12	0.2%	-3.3%	-1%	0%[15.4 µM]	4.9	3%	-1.0
CCCCCCNC(=O)N1C/C=C\C(c2ccc(OC)cc2)N(Cc2ccc(F)cc2)C(=O)C1 (stereo unspecified)	-0.3%	1.6%	-5%&1%	x	-4.8&2.3	-12%	0.0

(next part)
SMILES	PINK1 expr mod	ClpP mod	Sfp inh	gsp ag	Menin MLL FP FL	gsp antag	D2 ag
O=C(CSCc1c(Cl)cccc1Cl)Nc1ccc2c(c1)OCO2	-1.7%	-2.2%	-15%	-9%	3.9	-16%	-0.6
Cc1ccc(C(C)C)c(OCC(=O)N/N=C/c2cccn2C)c1	8.5%	1.0%	0%	-7%	5.1	-8%	-7.0
CC1(C)CC2(CCO1)OC(=O)CC2C(=O)Nc1ccc(Cl)cc1[N+](=O)[O-] (stereo unspecified)	-1.5%	0.1%	12%	1%[15.4 µM]	-0.2	5%	4.5
COc1cc(/C=C2\SC(=N)N(c3ccc4c(c3)OCO4)C2=O)cc(OC)c1O	5.0%	1.3%	-7%	-27%	u	-6%	1.5
CCOC(=O)c1ccc(NC(=O)Nc2cc(C)on2)cc1	u	-1.0%	-2%	3%	-1.2	-18%	2.8
Cc1ccc2cc(CCl)c(Cl)nc2c1	11%	x	-1%	-10%[15.4 µM]	-3.3	9%	-0.6
CCOc1ccc(NC(=O)COC(=O)Cn2cnnn2)cc1OCC	u	1.0%	6%	8%	-2.5	8%	-1.7
CNC(=O)/C(C#N)=C\c1cc(C)n(-c2ccc(N3CCOCC3)cc2)c1C	8.8%	x	20%	1%	0.9	-1%	2.2
NC(=S)NN=C1c2ccccc2-c2ccccc21	-0.4%	2.2%	13%	-43%[inhibitor]	1.6	-5%	-11
O=C(Nc1ccccc1)C1=C[C@@H](c2ccc(C(F)(F)F)cc2)C[C@@H](OCc2ccc(CO)cc2)O1	9.5%	1.0%	19%	u	14	-13%	-0.7
COc1ccc([C@H]2/C=C\CN(C(=O)c3ccccc3)[C@@H](C)C(=O)N2Cc2ccc(F)cc2)cc1	0.4%	-0.7%	x	-6%	x	-23%	-2.3
O=c1c2ccc(F)cc2sn1-c1ccccc1	8.9%	-2.1%	x	-29%	x	x	-9.2
COc1ccc([N+](=O)[O-])cc1NS(=O)(=O)c1cccc(C(=O)OC2CCOC2=O)c1 (stereo unspecified)	1.6%	-2.3%	x	27%	x	-30%	-1.5
CCn1cc(Br)c(C(=O)Nc2ccc(Cl)c(Cl)c2)n1	11%	1.4%	-7%	-18%	1.4	u	-0.6
CC(=O)N1CCC(=NNS(=O)(=O)c2cccc([N+](=O)[O-])c2)CC1	2.2%	-0.4%	-27%	-40%[inhibitor]	-1.1	4%	-2.8
Clc1ccc2ccc3cccnc3c2n1	1.3%	-0.7%	12%	6%	4.0	10%	-2.4

Reprinted at random: 2 records from the list
SMILES	PINK1 expr mod	ClpP mod	Sfp inh	gsp ag	Menin MLL FP FL	gsp antag	D2 ag
COc1cc(/C=C2\SC(=N)N(c3ccc4c(c3)OCO4)C2=O)cc(OC)c1O	5.0%	1.3%	-7%	-27%	u	-6%	1.5
Cc1ccc2cc(CCl)c(Cl)nc2c1	11%	x	-1%	-10%[15.4 µM]	-3.3	9%	-0.6
